Marburg entry inh: Marburg virus entry inhibition; Marburg virus pseudotyped entry inhibition, cell reporter; control for the full effect not named in the record; about a third of the inactives were read at about 46 µM; Potency, µM (titrated, usually from 37.8 µM), without a hit: at the highest dose activity change, negative = inhibition, most hits filed as inhibitors; 1.8% of 300,000 active; active = well fitted inhibition curve with a large enough effect; inconclusive = small, poorly fitted or top-dose-only effect, or effect the other way; inactive = flat fitted curve, though single readings scatter; tested in HEK293 cells; about a fifth of its hits are not listed in these tables; also: % is scaled to controls: 0 for no effect and ±100 for the full control effect; luciferase read-out
StopGo reporter: lowers the luciferase signal of an FMDV 2A StopGo reporter; human cells with a luciferase reporter of 2A StopGo recoding; control for the full effect not named in the record; Potency, µM (doses to about 57.9 µM), inactives show top-dose signal change, negative = less light; 1.2% of 410,000 active; active = well fitted falling curve with a large enough effect; inconclusive = small, poorly fitted or top-dose-only effect; inactive = no such curve, though single readings can be large or run the other way; tested in HEK293T cells; also: % is scaled to controls: 0 for no effect and ±100 for the full control effect; nearly all actives have a fitted effect of over 45% in size; luciferase light after 4 h
RE007 growth inh: less growth of the S. pombe RE007 Vpr strain; S. pombe RE007 Vpr strain, BacTiter-Glo ATP luminescence, 24 h; control for the full effect not named in the record; AID 651644; Potency, µM (top dose mostly 92.2 µM), for inactives: at the highest dose activity change, negative = less growth; 0.21% of 360,000 active; active = well fitted falling curve with a large enough effect; inconclusive = small, poorly fitted or top-dose-only effect; inactive = no such curve, though single readings can be large or run the other way;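 also: % is scaled to controls: 0 for no effect and ±100 for the full control effect; nearly all actives have a fitted effect of over 50% in size; the assay follows cell death caused by Vpr and the record does not say whether a fall means rescue or toxicity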
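Fission yeast RE007 carrying one integrated HIV-1 vpr copy, seeded at OD 0.01 in PMG+AL medium with 23 nL pinned compound. Grown 24 h at 30 degrees; viability read by BacTiter-Glo luminescence after 5 min.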
LASV entry inh: Lassa virus entry inhibition. Lassa virus pseudotype entry inhibition, cell reporter; control for the full effect not named in the record. Potency, µM (top dose mostly 37.9 µM), inactives show top-dose activity change, negative = inhibition, most hits filed as inhibitors. 1.2% of 300,000 active. AID 540256; active means well fitted inhibition curve with a large enough effect; inconclusive means small, poorly fitted or top-dose-only effect, or effect the other way; inactive means flat fitted curve, though single readings scatter; tested in HEK293 cells; also: % is scaled to controls: 0 for no effect and ±100 for the full control effect; nearly all actives have a fitted effect of over 50% in size; luciferase read-out
Cruzain noTriton: cruzain (T. cruzi) inhibition without detergent. Potency, µM, for inactives: max response, negative = inhibition, actives largely listed as inhibitors. 2.3% of 200,000 active. AID 1476. purified cruzain, Z-FR-AMC fluorescence, no detergent;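 also: plate controls were enzyme without inhibitor for no effect and buffer without enzyme for full effect; nearly all actives have a fitted effect of over 40% in size; top concentration of the series not given in the record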
Target sequence (P25779 123-467 limits assumed): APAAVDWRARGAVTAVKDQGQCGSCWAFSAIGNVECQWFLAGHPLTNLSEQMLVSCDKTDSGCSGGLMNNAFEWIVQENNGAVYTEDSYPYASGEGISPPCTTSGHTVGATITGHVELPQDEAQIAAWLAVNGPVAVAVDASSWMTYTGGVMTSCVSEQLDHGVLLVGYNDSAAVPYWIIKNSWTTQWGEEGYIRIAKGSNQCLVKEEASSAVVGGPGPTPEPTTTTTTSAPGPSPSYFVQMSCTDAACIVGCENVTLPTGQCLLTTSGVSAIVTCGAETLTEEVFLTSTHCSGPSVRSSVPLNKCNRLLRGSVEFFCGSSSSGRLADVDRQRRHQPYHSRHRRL
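Purified cruzain at 1.5 nM, pre-incubated 15 min with compound at room temperature in 100 mM sodium acetate pH 5.5, 5 mM DTT, 0.00005% Triton X-100. Reaction started with 2 uM Z-FR-AMC; AMC fluorescence increase over 60 s gives rate.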
NS1 inh: blocks influenza NS1 protein function; S. cerevisiae slowed by influenza A NS1, growth recovery by OD600; Potency, µM (doses to about 46.1 µM), for the others: at the highest dose activity, positive = more growth; 0.4% of 270,000 active; active means well fitted rising curve with a large enough effect; inconclusive means small, poorly fitted or top-dose-only effect; inactive means no such curve, though single readings can be large or run the other way; also: nearly all actives have a fitted effect of over 50% in size
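S. cerevisiae expressing influenza A NS1, grown in glucose, washed, then diluted 1:100 into pH 6.0 -URA galactose medium with 23 nl compound. Growth recovery read as OD600; NS1-free strain serves as control.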
SARS PLpro yeast: SARS-CoV PLP inhibition in yeast; 0.19% of 330,000 active; S. cerevisiae expressing SARS-CoV PLpro, growth rescue; control for the full effect not named in the record; Potency, µM (top dose mostly 32.9 µM), without a hit: at the top dose activity, positive = growth rescue; active means well fitted rising curve with a large enough effect; inconclusive means small, poorly fitted or top-dose-only effect; inactive means no such curve, though single readings can be large or run the other way; also: 0% is about no effect; nearly all actives have a fitted effect of over 55% in size; growth read by luminescence after 48 h
Cruzain inh Det: blocks cruzain activity in presence of Triton detergent; P25779; purified cruzain, Z-FR-AMC fluorescence, 0.01% Triton; Potency, µM, without a hit: max response, negative = inhibition, actives largely listed as inhibitors; 0.43% of 200,000 active; AID 1478;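 also: plate controls were neutral wells for no effect and buffer without enzyme for full effect; nearly all actives have a fitted effect of over 40% in size; top concentration of the series not given in the record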
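Z-FR-AMC hydrolysis (2 uM substrate) by cruzain (1.5 nM) monitored kinetically at ex 360/em 450 nm after 15 min room-temperature compound exposure; 0.01% Triton X-100, pH 5.5, 5 mM DTT.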
The depositor's hits bear a star; ? = inconclusive; . = not tested or not shown; [ ] = another dose, or the depositor's remark. Unless noted, calls follow the shape of the dose curve; as a rule, active = well fitted curve in the direction sought with a large enough effect; inconclusive = small, poorly fitted or top-dose-only effect, or another doubt; inactive = no such curve, though single readings can be large; an effect the other way counts as inactive or inconclusive. Potency is read from the fitted curve at half-maximal effect.

Below each SMILES – Marburg entry inh	SARS PLpro yeast	Cruzain inh Det	StopGo reporter	RE007 growth inh	Cruzain noTriton	LASV entry inh	NS1 inh
c1coc(CN2CCN(C(c3cccs3)c3nnnn3C3CCCC3)CC2)c1 (stereo not given)
    ?	-0.3%	5.5%	24.4%	5.7%	-2.0%	?	5.4%
COc1cccc2cc(C(C)N(CCCN3CCOCC3)C(=O)Nc3ccc(Cl)cc3)oc12 (stereo not given)
    ?	4.6%	2.8%	-17.0%	7.4%	-6.0%	?	-7.8%
Cc1oc2cc(Br)c(O)c(Br)c2c1C(=O)c1ccccc1
    .	-10.4%	.	3.3%	-12.3%	.	.	-58.8%
COc1ccccc1NC(=O)CCS(=O)(=O)c1ccc2c(c1)oc(=O)n2C
    -10.9%[46.1 µM]	-4.4%	.	6.8%	6.4%	.	24.8%[46.1 µM]	0.6%
O=C(Nc1c(-c2cccs2)nc2ccccn12)c1ccccc1F
    1.6%[46.1 µM]	-5.3%	.	-4.2%	-6.2%	.	?	.
O=C(Cc1nc2ccccc2[nH]c1=O)c1ccccc1
    ?	-4.4%	.	29.5%	9.6%	.	3.6%	.
O=C(CN(Cc1ccco1)C(=O)CNS(=O)(=O)c1ccccc1)NC1CCCCC1
    -5.4%	4.4%	-1.1%	1.5%	2.4%	5.0%	10.8%	-1.2%
Cc1ccc(-c2nc3c4ccccc4[nH]c(=O)n3n2)cc1
    ?	.	-3.5%	54.1%[activator]	.	-3.3%	?	.
CCOC(=O)c1c(NC(=O)c2cccnc2Cl)sc(C(=O)N(C)C)c1C
    ?	-5.2%	-12.0%	-2.7%	-3.9%	-3.4%	-19.4%	-8.3%
CC(Oc1ccccc1)C(=O)N1CCN(Cc2cc(=O)n3nc(-c4ccccc4Cl)sc3n2)CC1 (stereo not given)
    .	.	1.7%	11.0%	.	-1.6%	1.9%[46.1 µM]	.
Cc1ccc(-n2nnc3c(=O)n(CC(=O)N4CCCC4)cnc32)cc1
    ?	0.8%	1.3%	18.9%	15.0%	6.6%	-1.2%	1.3%
CC(=O)NCC(=O)OCC(=O)c1ccc(C)cc1
    -2.1%	-0.3%	7.0%	-10.9%	0.2%	5.8%	?	1.5%
COc1ccc2c(c1)c1c(c(=O)n(-c3ccc(OC)c(OC)c3)c(=O)n1Cc1ccccc1C)n2C
    .	.	-0.5%	-9.4%	.	9.0%	-11.5%[46.1 µM]	.
CCN1CCN(CC(=O)Nc2cc(C)on2)CC1
    -7.0%[46.1 µM]	0.6%	.	-13.7%	21.3%	.	-2.6%[46.1 µM]	.
O=C(O)c1ccc(N/N=C/c2ccc(-c3cccc(Cl)c3)o2)cc1
    .	-19.7%	.	5.7%	?	.	.	-9.8%
Cc1noc(C)c1/C=N/Nc1ccccn1
    13.5%[46.1 µM]	-3.4%	.	49.7%[activator]	4.2%	.	-0.6%	.
COC(=O)[C@H](Cc1c[nH]c2ccccc12)NC(=O)Nc1ccccc1OC
    ?	0.5%	.	-12.4%	?	.	-4.3%	-1.6%
COc1ccc(S(=O)(=O)NCC(=O)N(CC(=O)NCC2CCCO2)c2c(C)cccc2C)cc1 (stereo not given)
    ?	-16.5%	2.9%	-16.3%	2.0%	?	-24.3%	4.6%
O=C1CC(=O)C(n2cncn2)C(c2c(F)cccc2Cl)C1 (stereo not given)
    ?	3.2%	2.9%	2.0%	6.7%	-6.6%	10.0%	24.1%
COc1cc(OC)c(OC)cc1CNC(=O)c1cc(=O)[nH]c2ccccc12
    -0.1%	1.7%	.	0.0%	2.3%	.	-10.4%	-0.8%
Cc1ccc(S(=O)(=O)N(CC(=O)Nc2ccc(C(C)C)cc2)Cc2ccccc2)cc1
    .	.	-6.9%	-26.3%	.	-14.3%	-29.5%[46.1 µM]	.
O=C(O)c1cccc(NC(=O)c2ccc3c(c2)C(=O)N(c2ccccc2)C3=O)c1
    12.9%	-2.3%	.	30.4%[activator]	-6.4%	.	25.0%	7.9%
COc1ccc(Cl)cc1NC(=O)CSc1nc2ccccc2nc1N1CCCCC1
    ?	.	-2.4%	-17.5%	.	?	0.4%[46.1 µM]	.
O=C(Nc1ccccc1OCc1cc(=O)n2ccccc2n1)c1cccc(Br)c1
    .	.	4.1%	-12.3%	.	12.1%	-4.4%[46.1 µM]	.
O=C(CCN1C(=O)/C(=C/c2ccccc2Cl)SC1=S)Nc1ccccc1C(=O)O
    .	-5.9%	.	?	-0.7%	.	.	0.0%
O=C1NC(=Nc2ccc(Cl)cc2)SC1Cc1cc(Cl)ccc1Cl (stereo not given)
    6.0%	-0.2%	-4.5%	?	-17.8%	7.6%	?	15.1%
CCOC(=O)C(=O)Nc1cc([N+](=O)[O-])ccc1C
    6.8%	12.6%	-1.1%	-13.3%	14.1%	9.3%	-5.9%	2.1%
CCOc1cc(C2C3=C(CC(C)(C)CC3=O)N(CCOC)C3=C2C(=O)CC(C)(C)C3)ccc1OC
    .	0.9%	.	5.5%	1.0%	.	.	7.8%
CCC(C)NC(=O)CN(C)S(=O)(=O)c1ccc2c(c1)c(=O)n(C)c(=O)n2C (stereo not given)
    .	13.9%	1.9%	-16.8%	-3.9%	5.3%	.	2.2%
COc1cc(NC(=O)CCCNC(=O)Cn2cnc3sc(C)c(C)c3c2=O)cc(OC)c1OC
    -0.4%[46.1 µM]	4.7%	.	-17.8%	-12.8%	.	-6.6%	-1.1%

Below each SMILES – Marburg entry inh	SARS PLpro yeast	Cruzain inh Det	StopGo reporter	RE007 growth inh	Cruzain noTriton	LASV entry inh	NS1 inh
O=C(COc1ccc2c(-c3ccccc3)cc(=O)oc2c1)NCCN1CCOCC1
    -17.3%[46.1 µM]	-5.5%	.	-12.0%	5.8%	.	-7.3%[46.1 µM]	-6.4%
COc1cccc(CC(NC(C)=O)C(=O)NC2CCN(S(=O)(=O)c3ccc(F)cc3)CC2)c1OC (stereo not given)
    8.9%	-0.4%	.	9.8%	4.4%	.	?	2.5%
CN1CCN(C(=O)c2ccc(Cl)c(S(=O)(=O)N3CCCCCC3)c2)CC1
    -2.8%[46.1 µM]	-1.0%	.	-16.7%	0.9%	.	17.2%	-0.5%
CCCc1oc2c(c(=O)c1CC)C(=O)CC(C)(C)C2
    ?	2.8%	4.3%	-12.7%	-3.9%	9.3%	6.5%	-5.9%
FC(F)(F)C1CC(c2cccs2)Nc2ncnn21 (stereo not given)
    ?	11.0%	8.0%	0.0%	1.8%	-6.7%	2.6%	-0.1%
COC(=O)c1cnc(SC)nc1C
    23.0%	5.7%	7.5%	-2.6%	-2.8%	0.9%	3.4%	2.1%
Cc1ccc(C)c2c1[nH]c1ccccc12
    7.0%	-3.8%	-11.2%	-1.0%	?	8.9%	-4.9%	?
Cc1cccc(N2CCN(C(=O)CSc3nc4ccccc4nc3N3CC(C)OC(C)C3)CC2)c1C (stereo not given)
    ?	0.1%	.	?	13.4%	.	?	26.1%
CC(=O)N1CCCc2cc(S(=O)(=O)N(C)CC(=O)Nc3ccc(F)c(Cl)c3)ccc21
    .	.	-5.1%	?	.	-16.6%	-24.6%[46.1 µM]	.
Cc1ccc(S(=O)(=O)N2CCCc3cc(NS(=O)(=O)c4cccc(Cl)c4)ccc32)cc1
    .	.	-1.9%	?	.	25.1µM*	?	.
COc1cccc(C2c3c(C)nn(-c4ccc([N+](=O)[O-])cc4)c3N=C3C(=O)Nc4ccccc4N32)c1 (stereo not given)
    -1.9%[46.1 µM]	-0.2%	.	0.0%	6.8%	.	?	.
Cc1c(NS(=O)(=O)c2ccc(NC(=O)CCC(=O)O)cc2)c(=O)n(-c2ccccc2)n1C
    16.2%[46.1 µM]	-2.3%	.	-4.8%	7.5%	.	18.7%[46.1 µM]	-5.1%
O=C(COc1c(CO)cc(Br)cc1CO)NC1CCCc2ccccc21 (stereo not given)
    ?	0.5%	.	-20.1%	9.1%	.	-10.5%	.
CCCCC(O)(CCCC)C(=O)NN(C(=O)c1cccnc1Cl)c1ccccc1
    -14.2%	-0.3%	.	-7.9%	-3.0%	.	1.2%	0.4%
O=C(Cn1ncc2c3ccccc3n(Cc3ccc(Cl)cc3)c2c1=O)NCc1ccccn1
    -2.3%[46.1 µM]	.	-3.9%	-12.3%	.	2.6%	3.2%[46.1 µM]	.
Cc1cccc2c1cnn2C(=O)Nc1ccccc1Cl
    16.5%	1.3%	.	43.4%[activator]	-3.5%	.	?	1.3%
O=C(Cn1cccc1C(=O)c1ccccc1)NCc1ccco1
    0.5%	1.2%	1.3%	-4.5%	3.7%	-3.7%	0.3%	-3.6%
COCCOC(=O)C(C#N)c1nc2ccccc2nc1N1CCCC1 (stereo not given)
    4.1%	3.2%	-11.5%	-21.7%	6.2%	-10.9%	-0.7%	-13.7%
Cc1ccc(C(=O)O)cc1NS(=O)(=O)c1ccc2c(c1)oc(=O)n2C
    2.8%[46.1 µM]	13.9%	.	7.6%	1.6%	.	-16.3%[46.1 µM]	1.9%
COc1cccc(NC(=O)COc2cc(C)cc3oc(=O)cc(C)c23)c1
    .	-2.6%	.	?	9.1%	.	.	6.7%
Cc1ccc(SC(CC(=O)c2ccc(F)cc2)C(=O)O)cc1 (stereo not given)
    ?	-1.2%	.	?	?	.	?	1.9%
Cc1cc(C)c(S(=O)(=O)NCCc2cc3c(C)ccc(C)c3[nH]c2=O)c(C)c1
    4.8%[46.1 µM]	.	-0.7%	6.0%	.	10.5%	18.6%[46.1 µM]	.
CCC(C(=O)NC1CCCC1)N(Cc1ccco1)C(=O)Cn1nnc(-c2ccc(C)cc2)n1 (stereo not given)
    ?	-1.3%	-4.0%	-8.3%	4.4%	18.1%	-8.1%	-32.7%
O=S(=O)(Nc1ccccn1)c1ccc(Br)cc1
    .	1.0%	.	0.0%	-18.8%	.	.	-4.4%
C(=N\Nc1ccc2ccccc2n1)/c1ccc2c(c1)OCCO2
    .	-2.0%	.	?	?	.	.	-4.4%
